Source: PubChem
Mtb MenB inh: blocks the Mycobacterium tuberculosis MenB enzyme | P9WNP5 | MenB enzyme assay, absorbance read-out; some hits fall short of the stated cut | inhibition, %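 (about 12 µg/mL by stock and volumes)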 | actives 0.43% (n = 100,000) | AID 540299;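 active = mean of two replicates above 30%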;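 note: 0% = no compound and 100% = wells with inactive enzyme; the first replicate is given; strong numbers were not always called active; inactives centre near -10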
MbtI inh: MbtI salicylate synthase inhibition. purified MbtI enzyme, fluorescence intensity read-out. inhibition, %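 (about 17 µg/mL by stock and volumes)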. actives 0.89% (n = 100,000). AID 493033;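 active = above 50% in both replicates, above 80% if mildly self-fluorescent; inactive = the rest, strongly fluorescent compounds included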;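 note: 0% = mean of negative and 100% = mean of positive controls; one replicate is shown; some compounds called inactive have numbers as strong as hits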
Target sequence (P9WFX0 whole entry, looked up): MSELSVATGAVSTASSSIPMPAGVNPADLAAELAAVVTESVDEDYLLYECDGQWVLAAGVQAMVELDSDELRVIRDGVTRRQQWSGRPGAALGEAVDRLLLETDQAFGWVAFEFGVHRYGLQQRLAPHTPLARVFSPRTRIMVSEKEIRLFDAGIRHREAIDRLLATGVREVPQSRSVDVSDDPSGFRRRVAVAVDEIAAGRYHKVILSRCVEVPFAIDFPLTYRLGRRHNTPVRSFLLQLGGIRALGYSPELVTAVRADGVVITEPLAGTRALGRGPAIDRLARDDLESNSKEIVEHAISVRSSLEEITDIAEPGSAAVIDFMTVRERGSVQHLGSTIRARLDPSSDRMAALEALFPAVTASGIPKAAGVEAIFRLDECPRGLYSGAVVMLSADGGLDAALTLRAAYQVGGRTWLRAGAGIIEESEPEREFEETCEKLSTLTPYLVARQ
PV pol inh: poliovirus RNA polymerase inhibition. AID 588519. poliovirus polymerase elongation, fluorescence polarization; active compounds read low. P03300. % elongation, % (compound at 16.7 µg/mL). actives 0.66% (n = 150,000); in the data active = % elongation below about 90%; note: some results filed as inactive read as strong as hits
Target sequence (P03300 1749-2209 limits assumed): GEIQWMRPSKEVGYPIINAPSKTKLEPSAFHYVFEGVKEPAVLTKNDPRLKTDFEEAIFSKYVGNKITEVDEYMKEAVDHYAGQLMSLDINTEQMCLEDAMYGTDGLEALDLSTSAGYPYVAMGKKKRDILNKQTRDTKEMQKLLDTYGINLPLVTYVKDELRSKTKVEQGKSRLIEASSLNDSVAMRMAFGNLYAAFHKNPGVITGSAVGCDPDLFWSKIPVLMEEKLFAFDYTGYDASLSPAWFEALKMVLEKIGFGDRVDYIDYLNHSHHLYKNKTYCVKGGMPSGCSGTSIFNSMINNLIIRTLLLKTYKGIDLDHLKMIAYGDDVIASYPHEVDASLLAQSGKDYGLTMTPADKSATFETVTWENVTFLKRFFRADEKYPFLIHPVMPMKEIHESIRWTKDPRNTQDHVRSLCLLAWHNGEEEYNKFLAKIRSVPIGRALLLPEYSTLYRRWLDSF
PV pol inh intensity: further read-out of PV pol inh, marked with its call; % elongation; measured here: total intensity read-out; formula for this scale not given here;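 total fluorescence in place of polarization; lower means less elongation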
Starred values were filed as active, the others as inactive; i = inactive; . = not tested or not shown; & = joins results of further samples. Random draw from the library, and some 1.7% of all compounds hit somewhere here.

structure | Mtb MenB inh | MbtI inh | PV pol inh | PV pol inh intensity
O=C(c1ccc2c(c1)S(=O)(=O)N=C1CCCCCN12)N1CCCc2ccccc21 | -14 | -10 | 103 | 107
CCOC(=O)C1=C(C)Nc2ncnn2C1 | -1 | -4 | 103 | 102
COc1ccc(CN2CC(C(=O)N3CCn4c(nc5ccccc54)C3)CC2=O)cc1 (configuration not stated) | 6 | -4 | 101 | 104
CNC(=O)NC(=O)CSc1nnc(Cc2ccccc2)n1-c1ccc(Cl)cc1 | 7 | -2 | 101 | 107
Cc1ccc(C(=O)OCC(=O)c2c[nH]c3ccccc23)cc1 | . | -15 | 100 | 109
O=C(c1ccco1)N1CCN(Cc2cccc(C(F)(F)F)c2)CC1 | -6 | 10 | 101 | 100
NCCN1CCc2ccccc21 | 14 | 21 | 102 | 103
O=C1Nc2ccc(Cl)cc2/C1=C/c1ccc2c(c1)OCO2 | . | -9 | 105 | 107
Cc1ccccc1N1CCNCC1 | 3 | -6 | 100 | 101
C/C=C(\C)CN1CCN(CCOCCO)CC1 | -12 | -10 | 100 | 101

structure | Mtb MenB inh | MbtI inh | PV pol inh | PV pol inh intensity
O=c1[nH]c(CSc2ncc(-c3ccc(F)cc3)n2Cc2ccco2)nc2ccccc12 | 14 | -11 | 101 | 101
CC(=O)OC(C)(C)C#CCN1CCCC1 | -2 | . | 104 | 111
CC1CC(C)CN(C(=O)COC(=O)c2cccnc2Nc2ccccc2F)C1 (configuration not stated) | 23 | 6 | 105 | 101
CC(C)CC(=O)Nc1nc2ccc(S(C)(=O)=O)cc2s1 | 34 | 36 | 102 | 101
CC(C)(C)C(=O)NCC(c1cccs1)N1CCOCC1 (configuration not stated) | . | -9 | 102 | 106
CCc1ccc(/C=C2/C(=O)N(C)C(=S)N2C)cc1 | -150 | -11 | 102 | 104
Cc1ccc(NC(=O)c2cccc(N(C)C)c2)cc1NC(=O)c1ccc(O)cc1 | -8 | -59 | 103&102 | 100&99
C#CCN1C(=O)S/C(=C/c2cc(C)n(CC)c2C)C1=O | -42 | -10 | 98 | 106
O=C(Cc1c(F)cccc1Cl)NC(=O)NCCc1c(F)cccc1Cl | -53 | -7 | 108 | 104
CCOc1ccc(S(=O)(=O)Nc2ncccc2C)cc1 | -11 | 22 | 101 | 103

structure | Mtb MenB inh | MbtI inh | PV pol inh | PV pol inh intensity
CCN(CC(=O)Nc1ccc2c(c1)OCCO2)c1nnnn1-c1ccccc1 | 12 | 4 | 102 | 97
CC1=C(C(=O)OCc2ccccc2)C(c2ccccc2)N(C)C(=O)N1C (configuration not stated) | -21 | 4 | 100 | 99
NC(N)=NCCNS(=O)(=O)c1cccc2cnccc12 | 7 | -11 | 101&100 | 104&103
O=C(OCc1nnc(-c2ccccc2)o1)c1ccc2c(=O)n3c(nc2c1)CCCCC3 | -2 | 120 | 102 | 103
CC1(C)CC(=O)C(c2c[nH]c3ccccc23)C(=O)C1 | . | -12 | 101 | 98
CNc1ccccc1C(C)(C)c1ccn[nH]1 | . | -4 | 122 | 138
CCCCCCCc1c(C#N)c(N)[nH]c(=S)c1C#N | -52 | 97* | 69* | 77*
CCN(CC)C(=O)c1ccc(Oc2nnnn2-c2ccccc2)c(OC)c1 | -68 | -6 | 107 | 100
CN(C)C(=O)CNCC1CCCO1 (configuration not stated) | -26 | -7 | 101 | 103
CNc1nc(-c2ccccc2)[n+](-c2ccccc2)s1 | . | 100* | 102 | 103

Copied from the list.
Under PV pol inh intensity, `NCCN1CCc2ccccc21` shows 103
Under Mtb MenB inh, `COc1ccc(CN2CC(C(=O)N3CCn4c(nc5ccccc54)C3)CC2=O)cc1` (configuration not stated) shows 6

Some of the entries so far, with values under each structure.
Second line of a record: Mtb MenB inh, MbtI inh, PV pol inh, PV pol inh intensity
- CCN(CC(=O)Nc1ccc2c(c1)OCCO2)c1nnnn1-c1ccccc1
 : 12, 4, 102, 97
- CC1=C(C(=O)OCc2ccccc2)C(c2ccccc2)N(C)C(=O)N1C (configuration not stated)
 : -21, 4, 100, 99
- NC(N)=NCCNS(=O)(=O)c1cccc2cnccc12
 : 7, -11, 101&100, 104&103
- O=C(OCc1nnc(-c2ccccc2)o1)c1ccc2c(=O)n3c(nc2c1)CCCCC3
 : -2, 120, 102, 103
- CC1(C)CC(=O)C(c2c[nH]c3ccccc23)C(=O)C1
 : ., -12, 101, 98
- CNc1ccccc1C(C)(C)c1ccn[nH]1
 : ., -4, 122, 138
- CCCCCCCc1c(C#N)c(N)[nH]c(=S)c1C#N
 : -52, 97*, 69*, 77*

Remaining list, next part:
structure | Mtb MenB inh | MbtI inh | PV pol inh | PV pol inh intensity
Cc1ccc(C(C)C)c(OCC(=O)/C=C2\Sc3ccccc3N2C)c1 | -28 | 18 | 99 | 94
O=C(Nc1ccccc1)Nc1cc(N2CCOCC2)ncn1 | 1 | -4 | 96 | 103
O=C(OCC(=O)C12CC3CC(CC(C3)C1)C2)c1ccc(-n2cnnn2)cc1 | -9 | -9 | 101 | 103
CC(C)(C)C1CCC(NN2CCOCC2)CC1 (configuration not stated) | -21 | -10 | 102 | 102
O=C(/C=C/c1cccs1)Nc1ccc(Br)cn1 | . | 5 | 102 | 106
COc1ccc(CNC(=O)c2nc3ncccn3n2)cc1 | 6 | -5 | 100 | 103
c1csc(-c2nc3cnccn3c2NC2CCCCC2)c1 | -27 | 1 | 103 | 106
CCc1ccccc1NC(=O)CN1CCN(Cc2ccccc2C)S1(=O)=O | -15 | 3 | 102 | 102
Cc1nc2ccccc2c(=O)n1/N=C/c1cccs1 | -20 | -5 | 101 | 105
O=C(NCCOc1ccccc1)c1n[nH]c(=O)c2ccccc12 | -28 | -8 | 103 | 102

Letters – A = Mtb MenB inh; B = MbtI inh; C = PV pol inh; D = PV pol inh intensity
O=C(CSc1nnc2ccccn12)c1ccccc1
  A: -20; B: -2; C: .; D: .

CC(C)(C)c1ccc(S(=O)(=O)N=S2CCN(c3ncc(C(F)(F)F)cc3Cl)CC2)cc1
  A: -6; B: -8; C: 102; D: 106

COc1ccc(/C=C/C(O)=C2/C(=O)NC34CCCCC3C2c2ccccc2O4)c(OC)c1OC (configuration not stated)
  A: -37; B: -21; C: 101; D: 104

O=C(O)CCc1ccc(-c2cccs2)n1-c1cccc(Br)c1
  A: 0; B: 61; C: 101; D: 108

CCC(C(=O)Nc1ccc(OC)c(OC)c1)n1c(C)c2cnn(-c3ccccc3)c(=O)c2c1C (configuration not stated)
  A: -6; B: 5; C: 103; D: 105

CCOc1ccc(/C=N/N2C(C)CCCC2C)cc1 (configuration not stated)
  A: -47; B: 0; C: 105; D: 108

c1csc(CN2CCN(c3nc(CN4CCOCC4)nc4sc5c(c34)CCC5)CC2)c1
  A: -3; B: 9; C: 101; D: 94

O=C(CNc1ccccc1)NN=C1CCCC1
  A: -14; B: 2; C: 104; D: 96

Cc1cc(-c2ccccc2)nc2oc3c(c12)NC(=O)CN(c1ccccc1)C3=O
  A: 1; B: 6; C: 100; D: 102

CS(=O)(=O)N1CCCC(C(=O)NC2CCCC2)C1 (configuration not stated)
  A: -23; B: -10; C: 102; D: 99

C#CCOC(=O)Nc1cnc(OC)c(C(F)(F)F)c1
  A: -6; B: -3; C: 103; D: 106

C=CCNC(=O)COc1cc(C)c(Cl)c(C)c1
  A: -24; B: 2; C: 103; D: 103

Cc1cc(C)n(CCCNC(=O)CSc2nc(-c3ccccc3)c(-c3ccccc3)o2)n1
  A: -22; B: -82; C: 105; D: 110

CCCCSC1=C(C#N)C(=O)NC(c2ccco2)S1 (configuration not stated)
  A: -14; B: 8; C: 102; D: 102

CC(CN1CCCCC1)OC(=O)c1cccs1 (configuration not stated)
  A: -7; B: .; C: 104; D: 98

By substructure, the entries above containing bromine.
Letters – A = Mtb MenB inh; B = MbtI inh; C = PV pol inh; D = PV pol inh intensity
O=C(/C=C/c1cccs1)Nc1ccc(Br)cn1
  A: .; B: 5; C: 102; D: 106

O=C(O)CCc1ccc(-c2cccs2)n1-c1cccc(Br)c1
  A: 0; B: 61; C: 101; D: 108

(list continues)
Letters – A = Mtb MenB inh; B = MbtI inh; C = PV pol inh; D = PV pol inh intensity
O=C(CSc1nc2ccccc2c(=O)n1CCc1ccccc1)NCCc1ccccc1
  A: 4; B: 2; C: 104; D: 103

Cc1ccc2c(Cl)cc(Cl)c(OCC(=O)NCc3ccco3)c2n1
  A: .; B: -3; C: 104; D: 105

O=C(O)c1cccc(N2C(=O)/C(=C\C=C\c3ccco3)SC2=S)c1
  A: -75; B: -29; C: 101; D: 96

CCNc1ccc(P(=O)(CC)CC)cc1
  A: -14; B: 0; C: 102; D: 104

COCCn1nnnc1CN1CCC(NC(=O)Nc2cccc(OC)c2)CC1
  A: -20; B: -4; C: 102; D: 102

COc1ccc(CC(=O)N=c2sc3cc(Cl)ccc3n2C)cc1
  A: .; B: -3; C: 102; D: 98

CC1(C)Cc2c(C#N)c3nc(-c4ccccc4)cnn3c2CO1
  A: -33; B: .; C: 47; D: 248

N#CC1=CS/C(=C2\C(=O)NN(c3ccccc3)C2=O)SC1=N
  A: -32; B: .; C: 99; D: 106

O=C1CC(=O)N(c2ccccc2)C(=O)N1c1ccccc1
  A: -88; B: -14; C: 100; D: 102

COc1ccc2cc3c(N)c(C(=O)Nc4ncc(C)s4)sc3nc2c1
  A: 7; B: 8; C: 100; D: 180

Cc1cc(NC2c3ncccc3C(=O)N2C2CCCCC2)ccc1Br (configuration not stated)
  A: -14; B: -13; C: 100; D: 100

Cc1ccc(C=Nc2ccc(C(N)=O)cc2)o1
  A: -62; B: -2; C: 106; D: 126

c1ccc(C2=Nc3ccccc3C(c3ccncc3)=NN2)cc1
  A: -12; B: 9; C: 102; D: 105

Cn1c(N)c(C(=O)COC(=O)C2=NNC(=O)CC2)c(=O)n(C)c1=O
  A: -11; B: -5; C: 104; D: 109

Cc1ccc(-c2nn(CCC(=O)NCCN3CCOCC3)c(=O)c3ccccc23)cc1
  A: -33; B: -5; C: 101; D: 102

Letters – A = Mtb MenB inh; B = MbtI inh; C = PV pol inh; D = PV pol inh intensity
O=C(NCC1CCCCC1)C1CCN(c2cnccn2)CC1
  A: -12; B: -20; C: 102; D: 103

NC(=O)Cn1nc(C(F)(F)F)c2c1CCCC2
  A: -12; B: .; C: 106; D: 114

CCOC(=O)C1CCN(c2c(S(=O)(=O)c3ccccc3)cnc3ccc(F)cc23)CC1
  A: -2; B: -1; C: 100; D: 100

Cc1ccc2ncc(C(=O)N3CCc4ccccc4C3)c(=O)n2c1
  A: -10; B: 106; C: 101; D: 101

CC1CCCCN1C(=O)C12CCC(C)(C(=O)C1)C2(C)C (configuration not stated)
  A: -11; B: -1; C: 99; D: 102

C=CCNC(=O)CN1CCN(c2ccccc2)CC1
  A: -43; B: -2; C: 104; D: 101

Cc1[nH]c2ccc(C(=O)OCc3nnc(-c4ccccc4)o3)cc2c1C
  A: -17; B: -12; C: 103; D: 105

O=C(CCCOc1ccc(Cl)cc1Cl)Nc1nccs1
  A: -7; B: .; C: 101; D: 111

COc1ccc(-c2cc(C(=O)NN)n(CCC#N)n2)cc1
  A: -20; B: 9; C: 104; D: 102

COC(=O)c1ccc(OC)c(Cn2c(=O)n(C)c(=O)c3ccccc32)c1
  A: -4; B: -8; C: 102; D: 108

Cc1cc(-c2nn(C)c(=O)c3ccccc23)cc(C)c1OCC(=O)NN
  A: -17; B: -4; C: 101; D: 100

COc1ccccc1NC(=O)c1c(NCc2sccc2C)sc2c1CCCC2
  A: -11; B: -10; C: 103; D: 107

CN1CCC(OC(=O)c2cc3cc(Cl)cc(Cl)c3oc2=O)CC1
  A: -27; B: 33; C: 98; D: 102

C[N+]12CN3CN(CN(C3)C1)C2
  A: -9; B: -17; C: 103; D: 101

O=C(CSc1ccc(S(=O)(=O)N2CCN(Cc3ccccc3)CC2)cn1)NC(=O)NC1CCCC1
  A: -11; B: 5; C: 101; D: 99

2 of the compounds above, as labelled records.
structure: O=C(CCCOc1ccc(Cl)cc1Cl)Nc1nccs1
  Mtb MenB inh: -7
  MbtI inh: .
  PV pol inh: 101
  PV pol inh intensity: 111
structure: COc1ccc(-c2cc(C(=O)NN)n(CCC#N)n2)cc1
  Mtb MenB inh: -20
  MbtI inh: 9
  PV pol inh: 104
  PV pol inh intensity: 102

Later entries
Letters – A = Mtb MenB inh; B = MbtI inh; C = PV pol inh; D = PV pol inh intensity
CCn1c(SCC(=O)OCc2nc3ccccc3c(=O)n2CC#N)nnc1-c1cccs1
  A: 11; B: -44; C: 102; D: 107

CCCCn1c(SC(C)C(N)=O)nc2ccccc2c1=O (configuration not stated)
  A: -1; B: -6; C: 101; D: 106

O=C(CCCN1C(=O)CSc2ncccc21)NCc1ccccc1
  A: 4; B: -8; C: 102; D: 104

Cc1ccccc1NC(=O)COC(=O)c1cccc2ccccc12
  A: .; B: i; C: 99; D: 103

CCOC(=O)c1c(C)oc2nc(C)nc(N3CCc4cc(OC)c(OC)cc4C3C)c12 (configuration not stated)
  A: -17; B: -12; C: 101; D: 102

CN1C(=O)c2ccccc2C(C(=O)NCCCN2CCCCC2)C1c1cccs1 (configuration not stated)
  A: -25; B: -1; C: 105; D: 106

CCOC(=O)Nc1ccc2c(CSc3ncccn3)cc(=O)oc2c1
  A: -35; B: 25; C: 104; D: 99

CC(OC(=O)c1cn(Cc2ccccc2)nc1-c1cccs1)C(N)=O (configuration not stated)
  A: -12; B: -10; C: 103; D: 104

COc1ccc(CCNC(=O)c2ccc(NC(=O)CC#N)cc2)cc1OC
  A: -24; B: -17; C: 111; D: 114

C=CCSc1nnc2c(n1)OC(c1cccnc1)Nc1ccccc1-2 (configuration not stated)
  A: -29; B: 2; C: 98; D: 101

O=C1CCCN1CCCNc1ncnc2sccc12
  A: -13; B: -9; C: 102; D: 110
